# Source: PubChem BioAssay (ICCB-Longwood Screening Facility, Harvard Medical School)
# Choline anaer gr – growth inhibitors of anaerobic choline-fed gram-negatives, minimal medium, absorbance; Gram-negative bacterium anaerobic choline minimal medium; active compounds read low; many inactives read as strong as hits in the columns shown; calls only; hit rate 0.2% among 55,000; AID 1963822, 2024;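 active = growth z-score on choline under -2 at 7 or 20 h with little or no fall on glycerol, limits in tiers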;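 also: stock transfer was 300 nL into about 50 µL; the organism is E. coli; final concentration not given here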
# Choline anaer gr early – further read-out of Choline anaer gr, marked with its call; z-score; measured here: choline growth z-score, timepoint 1;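 score of optical density at 7 h as mean of two plates; lower means less growth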
# Active calls of the source: *; i = inactive; & = joins results of further samples. Only part of the results is shown; the hit share may differ from the screen's.
SMILES,Choline anaer gr,Choline anaer gr early
Cc1cc2oc(=O)n(C)c2cc1NC(=O)c1cccc(F)c1,i,1.1
Cc1ccc(NC(=O)CSc2nc3ccccc3c(=O)n2CC2COc3ccccc3O2)cc1 (stereo not given),i,0.66
CCCC(=O)Nc1c(C(=O)OCC)[nH]c2ccc(C)cc12,i,0.12
CCOCCn1c(N2CCCN(C)CC2)nc2ccccc21,i,0.23
Cc1ccc(C(=O)Nc2nc3ccc(S(N)(=O)=O)cc3s2)cc1C,i,0.15
COC(=O)c1ccc(Cl)cc1NC(=O)N1CCN(c2nc3ccccc3n2Cc2ccccc2)CC1,i,-1.5
CCN1C(=O)COc2ccc(-c3noc(CNS(=O)(=O)c4ccc(F)cc4)n3)cc21,i,0.36
COc1cc2c(=O)n(Cc3ccc(C(=O)NC(C)C)cc3)c(=O)n(CC(N)=O)c2cc1OC,i,1.2
COc1cccc(C(=O)NCCc2csc3nc(-c4ccccc4C)nn23)c1OC,i,0.2
Cc1nc2ccccc2n(CC(=O)Nc2ccccc2)c1=O,i,1.2
COc1ccc(C2C3=C(CC(c4ccc(Cl)cc4)CC3=O)Nc3onc(C)c32)cc1O (stereo not given),i,0.04
Cc1ccc(C(CNC(=O)c2ccc(Br)o2)N(C)C)o1 (stereo not given),i,-0.4
CC(C)(C)c1ccc(OCC(=O)N(Cc2ccccc2)C2CCS(=O)(=O)C2)cc1 (stereo not given),i,0.06
CNC(=O)c1csc(N2CCCC(C)C2)n1 (stereo not given),i,-0.08
CCOC(=O)C1CCN(C(=O)c2cc(NC(=O)c3ccc(C)cc3)cnc2N2CCNCC2)CC1,i,0.27
O=C(CSc1nc(-c2ccccc2)nc2cc(=O)[nH]n12)NCC1CCCO1 (stereo not given),i,-1.6
CCc1cc(C2CCCN2S(=O)(=O)c2ccc(Cl)s2)on1 (stereo not given),i,1.3
COC(=O)c1ccc(C(=O)OC)c(NC(=O)c2c(-c3ccc(OC)cc3)oc3ccc(OC)cc23)c1,i,0.52
CCOC(=O)c1nc2cc(C)c(C)cc2nc1NCc1cc(OC)ccc1OC,i,0.66
CCCCN1C=C(OC(=O)c2ccccc2OC)c2ccccc2S1(=O)=O,i,1.2
NS(=O)(=O)c1ccc(CCNC(=O)CCCc2nnc3c(=O)n(-c4cccc(F)c4)ccn23)cc1,i,0.05
COc1ccc(-n2c3c(cc(-c4ncnn4-c4ccccc4)c2=O)C(=O)CC(C)(C)C3)cc1,i,0.01
CCS(=O)(=O)c1ccc(-c2ccc(NC(=O)c3cccc(OC)c3)cc2)nn1,i,0.42
Cn1nc(C(=O)Nc2ccccc2)c(Cl)c1C(F)(F)F,i,-0.59
O=C(Nc1ccc(-c2nc3ccccc3o2)cc1)c1ccc(F)cc1,i,-0.26
O=S(=O)(NCCc1csc(-c2ccc(Cl)cc2)n1)c1ccccc1,i,1.7
CCCNC(=O)C1CCCN(c2ccnc(-c3ccc(F)cc3)n2)C1 (stereo not given),i,-0.45
CCc1nn2c(=O)cc(COc3ccc(-c4nc5sc6c(c5c(=O)[nH]4)CCCC6)cc3)nc2s1,i,-0.13
Cc1ccc(CC2(O)CCN(CCOc3ccc(O)cc3)CC2)cc1,i,-0.1
O=C(O)c1cc(N2CCCN(c3ncccn3)CC2)nc2ccc(NC(=O)C3CCC3)cc12,i,0.05
Cc1cc(N2CCOCC2)nc(N2CCN(S(=O)(=O)c3ccccc3)CC2)n1,i,-0.28
O=C(CCc1ccccc1)N1CCC(N2CCN(Cc3ccc(F)cc3)C(=O)C2=O)CC1,i,-0.46
Cc1oc(-c2ccc(C(=O)NCCc3cnc[nH]3)cc2)nc1CN1CCN(c2ccccc2)CC1,i,1.5
O=c1c2cc3c(cc2nc(SCc2nc(-c4ccc(Cl)cc4)no2)n1C1CC1)OCO3,i,-1.3
O=C(COc1ccc(Br)cc1)NCCc1nc(-c2ccccc2)no1,i,-0.35
Cc1ccc2c(c1)OC=CC(C(=O)Nc1ccc(N3CCOCC3)cc1)=C2,i,-0.82
COCCc1noc(Cn2ccnc2C)n1,i,0.26
CC1(C)CCC2=C(O1)c1ccccc1C(=O)C2=O,i,-1.7&-0.98
CCCS(=O)(=O)c1nc2ccc(NS(=O)(=O)c3ccccc3Cl)cc2s1,i,-0.69
COC(=O)c1ccc(C(=O)OC)c(NC(=O)c2c(C)oc3ccc(OCc4ccccc4)cc23)c1,i,-0.07
COc1ccc(NC(=O)Cn2c3ncccc3c(=O)n2-c2ccccc2)cc1,i,1.6
Cc1ccc(S(=O)(=O)N2CCCC(C(=O)N3CCCC3c3nc(-c4ccccc4)no3)C2)cc1 (stereo not given),i,0.21
C=CCn1c(=O)c2sc(N3CCCCC3)nc2n(CC(=O)Nc2cc(F)ccc2F)c1=O,i,-0.19
O=C(NCc1noc(COc2ccccc2)n1)c1ccc(-c2noc(C3CC3)n2)cc1,i,0.25
CN1CCN(c2ccc(NS(=O)(=O)c3ccc(N4C(=O)CCS4(=O)=O)cc3)cc2)CC1,i,-0.21
COc1ccc(-c2nnc(-c3nc(N4CCc5ccccc54)c4ccccc4n3)o2)cc1,i,-0.38
CC(C)n1cnc2nc(CSc3ccc(NC(=O)Nc4cccc(F)c4)cc3)cc(=O)n21,i,-0.34
CN1CCN(C(=O)c2cc3cc(Cl)ccc3[nH]2)CC1,i,-0.38
Cc1cccc(NS(=O)(=O)c2cc(-c3nc(C)c(C)s3)sc2C)c1,i,-0.04
C=CCNC(=O)N1CCCN(C2=NS(=O)(=O)C(c3ccc(Cl)cc3)=C2C)CC1,i,0.33

# (next part)
SMILES,Choline anaer gr,Choline anaer gr early
Cc1ccc(-c2ccc(-n3nc(C)c(S(=O)(=O)N4CCCCC4)c3C)nn2)cc1,i,0.47
Cn1c(CCc2ccccc2NC(=O)C2CCCN(S(=O)(=O)N3CCCC3)C2)nc2ccccc21 (stereo not given),i,0.09
CCOc1ccc(-n2c(-c3ccc(Cl)cc3)cn3c4c(=O)n(C)c(=O)n(C)c4nc23)cc1,i,0.25
CCCc1ccc(S(=O)(=O)N(Cc2ccc(OC)cc2)Cc2[nH]c(C)c(C(=O)OCC)c2C)cc1,i,0.21
CCCn1cnc2nc(CSc3ccccc3NC(=O)Nc3ccc(C)c(Cl)c3)cc(=O)n21,i,1
Cc1ccc(S(=O)(=O)Nc2cc3[nH]c(=O)[nH]c3cc2C)cc1F,i,1.4
Cc1cc(C)nc(NC(c2ccccc2)c2cc(C)sc2NC(=O)c2ccccc2)n1 (stereo not given),i,-0.42
CCC(CO)NCc1ccc(-c2ccc(Cl)cc2Cl)o1 (stereo not given),i,-1.4
COc1cc(NS(=O)(=O)c2c(C)nn(-c3ccc(-c4ccc(C)cc4)nn3)c2C)cc(OC)c1,i,1.6
Brc1ccccc1-c1nn2c(-c3ccccn3)nnc2s1,i,-1.8
CC(NC(=O)CSc1nnc(-c2cccnc2)o1)c1nc2ccccc2n1C (stereo not given),i,0.27
Cc1cc(NC(=O)CCc2nc(CSc3nc(-c4ccccc4C)cs3)no2)no1,i,-0.45
CCn1c(=O)n(-c2cccc(Cl)c2)c(=O)c2c1c1cc(C)ccc1n2C,i,1.4
O=c1c2ccccc2ncn1Cc1noc(/C=C/c2ccccc2)n1,i,0.18
CCOC(=O)CC1C(=O)NCCN1C1CCCCC1 (stereo not given),i,-0.48
Cn1c(=O)oc2cc(S(=O)(=O)NCCn3c(CCc4ccccc4)nc4ccccc43)ccc21,i,-0.39
CCCCC(CC)CN=C(N)NC(N)=NCCCCCCN=C(N)NC(N)=NCC(CC)CCCC (stereo not given),i,-2.7
Cc1ccc(CN2C(=O)c3cc4ccsc4n3CC2(C)C(=O)NC2CCCC2)cc1 (stereo not given),i,0.22
O=C(C1CCC1)N1CCc2sc(S(=O)(=O)NCc3ccc4c(c3)OCO4)cc2C1,i,0.94
O=C(NCC1CCCO1)c1ccc(N2CCNCC2)c(NS(=O)(=O)c2ccc(F)c(Cl)c2)c1 (stereo not given),i,-0.41
O=S1(=O)C[C@H](N2CCN(c3ccccc3F)CC2)[C@@H](S(=O)(=O)c2ccccc2)C1,i,-0.79
CCC(C)N1CC(=O)N(c2cc(C)cc(C)c2)[C@@H]2CS(=O)(=O)C[C@@H]21 (stereo not given in full),i,0.61
O=C(COc1cc(O)c2c(=O)c3ccccc3oc2c1)OCc1ccccc1,i,0.76
Cc1cc(N2CCN(C)CC2)nc(N2CCN(C(=O)c3ccc(C(C)(C)C)cc3)CC2)n1,i,0.25
CS(=O)(=O)Nc1ccc(C2=NN(C(=O)CCC(=O)O)C(c3ccccc3)C2)cc1 (stereo not given),i,-0.89
Cc1cccc(N2CCN(C(=O)CN3C(=O)c4ccccc4Sc4ncccc43)CC2C)c1 (stereo not given),i,0.25
CCOC(=O)c1noc2ncnc(Nc3ccc(OC)c(Cl)c3)c12,i,0.96
Cc1[nH]nc2c1C(C(=O)c1cccc(Cl)c1)CC(=O)N2 (stereo not given),i,0.1
CCCCC(=O)NCc1csc(-c2ccc(OC)cc2)n1,i,0.32
CC(C(=O)O)c1ccc(-c2ccccc2)c(F)c1 (stereo not given),i,0.57&0.57&0.17
O=C(CCCc1nc(-c2ccccc2Cl)no1)Nc1nncs1,i,0.96
C=CCNC(=O)C1CCN(Cc2noc(-c3ccc(F)cc3)n2)CC1,i,0.17
CNC(=O)c1nc(C(C)(C)NC(=O)c2cnccn2)nc2c1OCO2,i,-0.27
Cc1ccccc1C(=O)Nc1c(C)nc2ccccn2c1=O,i,-0.17
Cc1ccc(N2C(=O)C3N=NN(CC(=O)Nc4ccc5c(c4)OCO5)C3C2=O)cc1C (stereo not given),i,0.64
COc1ccc(OC)c(NS(=O)(=O)c2cc(F)ccc2CN2C(=O)c3cccnc3C2=O)c1,i,-1.2
COc1ccc(-c2noc(N3CCCC(C(=O)N4CCC(Cc5ccccc5)CC4)C3)n2)cc1 (stereo not given),i,0.79
CCOC(=O)c1cc(C)n(CC2CCC(C(=O)NCc3ccc(OC)cc3)CC2)c1C (stereo not given),i,-0.73
COC(=O)c1sc2ccc(NC(=O)NCc3cccc(OC)c3)cc2c1OC,i,0.56
CCNC(=O)N1CCC(c2nc(C)cs2)CC1,i,0.48
COc1ccc(CC(=O)Nc2ccc3c(c2)CCCN3S(=O)(=O)c2ccc(C)cc2)cc1,i,-0.9
Cc1sc2ncnc(Nc3ccc(F)cc3F)c2c1S(=O)(=O)N1CCCCC1,i,1.8
CCOc1ccc(-c2noc(Cc3nc(-c4ccccc4Cl)cs3)n2)cc1,i,1.3
Cc1cc(N2CCOCC2)n2nc(CN3CCN(c4ccccn4)CC3)nc2n1,i,0.5
O=C1CCCc2[nH]c(=O)c(C(=O)Nc3ccc(O)cc3)cc21,i,-0.36
CC1CCCCC1NC(=O)C1(C)Cn2c(cc3occc32)C(=O)N1C1CCCCC1 (stereo not given),i,0.18
CCCc1cc(Sc2ccc(NC(=O)CC(C)C)cc2)n2ncnc2n1,i,-1.3
CCCC(O)c1nc2ccccc2n1CCCOc1c(C)cccc1C (stereo not given),i,1.5
COc1ccc(C2CC(=O)C3=C(C2)Nc2onc(C)c2C3c2ccc(OC)c(OC)c2)cc1OC (stereo not given),i,0.42
Cc1ccc(C)c(NS(=O)(=O)c2cc(-c3nc(C(C)(C)C)cs3)cs2)c1,i,-0.01

# Further results:
SMILES,Choline anaer gr,Choline anaer gr early
Cc1cc(C)c(-c2c(N3CCN(C)CC3)c(=O)c2=O)cc1C,i,0.21
Cn1cnc(S(=O)(=O)Nc2ccccc2Cl)c1,i,-0.58
CC(=O)Nc1ccccc1-c1nc2ccccc2n(C(C)C(=O)c2ccc(C)c(C)c2)c1=O (stereo not given),i,-0.3
CSc1ccc(N2C=NS(=O)(=O)c3cccnc32)cc1,i,0.82
CC(C)CCn1nc2c(S(=O)(=O)N3CCCCCC3)cccn2c1=O,i,-0.71
COc1ccccc1CNC(=O)C1c2c(C)nn(-c3ccccc3)c2SCC(=O)N1c1ccccc1Cl (stereo not given),i,0.15
O=C(C1Cc2ccccc2CN1S(=O)(=O)c1ccccc1)N1CCN(c2cccc(Cl)c2)CC1 (stereo not given),i,1.1
COC(=O)c1sccc1NC(=O)c1cn2c3c(ccc(Cl)c3c1=O)OC(C)C2 (stereo not given),i,0.29
O=C(CC1CCN(C(=O)c2ccccc2)CC1)N1CCN(c2ccccn2)CC1,i,0.38

# Filtered by structure, the compounds so far containing fluorine
SMILES,Choline anaer gr,Choline anaer gr early
Cc1cc2oc(=O)n(C)c2cc1NC(=O)c1cccc(F)c1,i,1.1
CCN1C(=O)COc2ccc(-c3noc(CNS(=O)(=O)c4ccc(F)cc4)n3)cc21,i,0.36
NS(=O)(=O)c1ccc(CCNC(=O)CCCc2nnc3c(=O)n(-c4cccc(F)c4)ccn23)cc1,i,0.05
Cn1nc(C(=O)Nc2ccccc2)c(Cl)c1C(F)(F)F,i,-0.59
O=C(Nc1ccc(-c2nc3ccccc3o2)cc1)c1ccc(F)cc1,i,-0.26
CCCNC(=O)C1CCCN(c2ccnc(-c3ccc(F)cc3)n2)C1 (stereo not given),i,-0.45
O=C(CCc1ccccc1)N1CCC(N2CCN(Cc3ccc(F)cc3)C(=O)C2=O)CC1,i,-0.46
C=CCn1c(=O)c2sc(N3CCCCC3)nc2n(CC(=O)Nc2cc(F)ccc2F)c1=O,i,-0.19
CC(C)n1cnc2nc(CSc3ccc(NC(=O)Nc4cccc(F)c4)cc3)cc(=O)n21,i,-0.34
Cc1ccc(S(=O)(=O)Nc2cc3[nH]c(=O)[nH]c3cc2C)cc1F,i,1.4
O=C(NCC1CCCO1)c1ccc(N2CCNCC2)c(NS(=O)(=O)c2ccc(F)c(Cl)c2)c1 (stereo not given),i,-0.41
O=S1(=O)C[C@H](N2CCN(c3ccccc3F)CC2)[C@@H](S(=O)(=O)c2ccccc2)C1,i,-0.79
CC(C(=O)O)c1ccc(-c2ccccc2)c(F)c1 (stereo not given),i,0.57&0.57&0.17
C=CCNC(=O)C1CCN(Cc2noc(-c3ccc(F)cc3)n2)CC1,i,0.17
COc1ccc(OC)c(NS(=O)(=O)c2cc(F)ccc2CN2C(=O)c3cccnc3C2=O)c1,i,-1.2
Cc1sc2ncnc(Nc3ccc(F)cc3F)c2c1S(=O)(=O)N1CCCCC1,i,1.8
